# Bioassay records as filed in PubChem.
# CRFR2-BP antag = CRF-BP/CRF-R2 complex antagonism; 0.59% of 350,000 active; inhibition, % at 11.8 µM; AID 588475; HEK293 CRF-R2/CRF-BP, CRF-induced calcium fluorescence;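 active = inhibition of the ligand-induced calcium signal above about 50% at the single tested concentration, limit read from the data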
# VIM-2 inh = inhibitors of Pseudomonas aeruginosa VIM-2 metallo-beta-lactamase; purified VIM-2, nitrocefin hydrolysis, epi-absorbance fluorescence; 0.89% of 290,000 active; AID 1527; inhibition, % at 5.6 µM;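 active = inhibition above the mean of all tested compounds plus 3 SD, cutoff set per screening run, cut at about 7.5% in these data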;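 note: red hydrolysis product quenches plate fluorescence so inhibitors raise well fluorescence; 0% = enzyme with DMSO and 100% = DMSO without enzyme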
# GalR3 antagonist = blocks the human galanin receptor 3; inhibition, % at 3 µM; HEK293 GalR3-CNG cAMP membrane potential fluorescence; galR3 body fused to GalR1 C-terminus; 0.44% of 360,000 active; O60755;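 active = inhibition above the screen-wide average plus 3 SD, cut at about 13% in these data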;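 note: forskolin and galanin both at EC90 stimulate the cells; cAMP rise reported by CNG channel membrane potential dye signal; 0% = forskolin plus galanin with DMSO and 100% = forskolin alone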
# Target sequence (O60755 1-299 limits assumed): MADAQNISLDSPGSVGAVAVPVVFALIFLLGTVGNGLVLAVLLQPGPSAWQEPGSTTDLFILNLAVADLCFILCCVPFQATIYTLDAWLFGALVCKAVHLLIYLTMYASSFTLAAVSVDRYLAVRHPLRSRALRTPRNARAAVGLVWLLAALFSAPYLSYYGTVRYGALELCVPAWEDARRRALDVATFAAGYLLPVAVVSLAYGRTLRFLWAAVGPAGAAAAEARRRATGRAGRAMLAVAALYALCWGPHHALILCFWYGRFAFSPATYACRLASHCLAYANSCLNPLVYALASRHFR
# IDE cell inh = cellular human IDE inhibition; P14735; 0.41% of 320,000 active; inhibition, % at 5.59 µM; HEK cells, FAbetaB cleavage, fluorescence polarization;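 active = percent inhibition above the average of all tested compounds plus 3 SD, set per screening campaign, cut at about 16% in these data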;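 note: IDE supplied by intact live HEK cells; FP after avidin binding of uncleaved biotin substrate so inhibition keeps polarization high; 0% = DMSO wells and 100% = 60 µM reference IDE inhibitor Ii1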
# IDE cell activ = activators of human insulin-degrading enzyme in cells. HEK cells, FAbeta-B cleavage, fluorescence polarization; 0% vehicle, 100% cell-free pure enzyme wells. 0.073% of 340,000 active. activation, % at 5.96 µM;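 active = activation above the mean of all tested compounds plus 3 SD, set per screening campaign, cut at about 17% in these data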
# * marks the source's active call; other numbers are inactive results; i = inactive; / = no result given; & = joins results of further samples. An excerpt; rates above refer to the full screens.
molecule,CRFR2-BP antag,VIM-2 inh,GalR3 antagonist,IDE cell inh,IDE cell activ
Cc1cc(NS(=O)(=O)c2ccc(N)cc2)no1,5,-2.3,-5,1,4
O=C(N=Nc1c(O)n(Cc2ccccc2)c2ccccc12)c1cc2ccccc2cc1O,39,-3.7,0,-2,3
CC(C)(C)NC(=O)[C@@H]1C[C@@H]2CCCC[C@@H]2CN1C[C@@H](O)[C@H](Cc1ccccc1)NC(=O)[C@H](CC(N)=O)NC(=O)c1ccc2ccccc2n1,3&16,-3.2,-1,-1&7,6&0
CC(C)(C(=O)O)c1ccc([C@H](O)CCCN2CCC(C(O)(c3ccccc3)c3ccccc3)CC2)cc1,i,-4.4,0,-2,4
COc1ccc(Cn2cc(C(=O)O)c(=O)c3ccccc32)cc1,12,-0.4,-5,8,6
CN1[C@@H]2CC[C@H]1CC(OC(=O)C(CO)c1ccccc1)C2 (stereo not given in full),23,-4.0,/,2,4
Cc1ccc(/C=C/C(=O)c2ccccc2)cc1,4,-1.9,0,2,0
CCCCNc1ccc(C(=O)O)cc1,11,0.5,-8,1,-2
O=C(NCc1cccnc1)c1cc(-c2ccco2)on1,-17,-5.0,/,2,-3
C[C@H](CS)C(=O)N1CCC[C@H]1C(=O)O,5,-1.4,/,7,3
CN(C)CCOC(c1ccccc1)c1ccccc1,i,-1.2&-3.0,-3&-3,3&-5,1&6
CN1[C@@H]2CC[C@H]1CC(OC(=O)[C@H](CO)c1ccccc1)C2 (stereo not given in full),0,-1.4,-4,6,4
CC(=O)Nc1ccc(Oc2ncccn2)cc1,15,-2.6,4,1,7
CN(C)CCCN1c2ccccc2CCc2ccccc21,-51,-3.4,-3,-3,3
COc1c2occc2cc2ccc(=O)oc12,-3,-1.4,-6,-1,3

# An excerpt of the results above, for reference:
molecule,CRFR2-BP antag,VIM-2 inh,GalR3 antagonist,IDE cell inh,IDE cell activ
Cc1cc(NS(=O)(=O)c2ccc(N)cc2)no1,5,-2.3,-5,1,4
O=C(N=Nc1c(O)n(Cc2ccccc2)c2ccccc12)c1cc2ccccc2cc1O,39,-3.7,0,-2,3

# Compound profiles, as listed above.
# `Cc1cc(NS(=O)(=O)c2ccc(N)cc2)no1` is entered as CRFR2-BP antag = 5; VIM-2 inh = -2.3; GalR3 antagonist = -5; IDE cell inh = 1; IDE cell activ = 4
# `O=C(NCc1cccnc1)c1cc(-c2ccco2)on1` is entered as CRFR2-BP antag = -17; VIM-2 inh = -5.0; GalR3 antagonist = /; IDE cell inh = 2; IDE cell activ = -3

# Just IDE cell activ, for some of the entries so far:
Structure	IDE cell activ
Cc1cc(NS(=O)(=O)c2ccc(N)cc2)no1	4
O=C(N=Nc1c(O)n(Cc2ccccc2)c2ccccc12)c1cc2ccccc2cc1O	3
CC(C)(C)NC(=O)[C@@H]1C[C@@H]2CCCC[C@@H]2CN1C[C@@H](O)[C@H](Cc1ccccc1)NC(=O)[C@H](CC(N)=O)NC(=O)c1ccc2ccccc2n1	6&0
